Compound activity deposited in PubChem by National Center for Advancing Translational Sciences (NCATS).
MARV entry inh: qHTS for inhibitors of binding or entry into cells for Marburg Virus. Marburg virus pseudotyped entry inhibition, cell reporter; control for the full effect not named in the record; about a third of the inactives were read at about 46 µM. Potency, µM (doses to about 37.8 µM), inactives show at the highest dose activity change, negative = inhibition, usual class: inhibitors. 300,000 tested, 1.8% active. AID 540276, 2011; active = well fitted inhibition curve with a large enough effect; inconclusive = small, poorly fitted or top-dose-only effect, or effect the other way; inactive = flat fitted curve, though single readings scatter; tested in HEK293 cells; about a fifth of its hits are not listed in these tables; also: % is scaled to controls: 0 for no effect and ±100 for the full control effect; luciferase read-out
Cruzain inh noDet: qHTS Assay for Promiscuous and Specific Inhibitors of Cruzain (without detergent); purified cruzain, Z-FR-AMC fluorescence, no detergent; Potency, µM, without a hit: max response, negative = inhibition, most hits filed as inhibitors; 200,000 tested, 2.3% active; AID 1476, 2009; active = well fitted curve in the direction sought with a large enough effect; inconclusive = small, poorly fitted or top-dose-only effect, or another doubt; inactive = no such curve, though single readings can be large; an effect the other way counts as inactive or inconclusive;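 also: plate controls were enzyme without inhibitor for no effect and buffer without enzyme for full effect; nearly all actives have a fitted effect of over 40% in size; top concentration of the series not given in the record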
Target sequence (P25779 123-467 limits assumed): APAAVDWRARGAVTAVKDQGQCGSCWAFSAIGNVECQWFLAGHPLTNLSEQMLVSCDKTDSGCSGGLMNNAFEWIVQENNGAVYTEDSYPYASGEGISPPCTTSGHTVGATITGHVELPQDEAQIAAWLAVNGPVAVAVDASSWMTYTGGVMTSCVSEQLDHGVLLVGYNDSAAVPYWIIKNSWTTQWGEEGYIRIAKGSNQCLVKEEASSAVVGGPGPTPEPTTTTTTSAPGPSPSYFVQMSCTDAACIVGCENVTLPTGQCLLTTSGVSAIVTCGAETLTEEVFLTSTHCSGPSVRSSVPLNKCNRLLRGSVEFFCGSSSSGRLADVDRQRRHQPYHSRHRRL
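Detergent-free condition (0.00005% Triton X-100) in acetate buffer pH 5.5 with DTT. 1.5 nM enzyme and compound were pre-mixed 15 min, then 2 uM Z-FR-AMC substrate added; reaction progress from fluorescence change between first and third reads (60 s).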
LASV entry inh: qHTS for Inhibitors of binding or entry into cells for Lassa Virus. Lassa virus pseudotype entry inhibition, cell reporter; control for the full effect not named in the record. Potency, µM (highest dose often 37.9 µM), without a hit: top-dose activity change, negative = inhibition, most hits filed as inhibitors. 300,000 tested, 1.2% active. AID 540256, 2011; active means well fitted inhibition curve with a large enough effect; inconclusive means small, poorly fitted or top-dose-only effect, or effect the other way; inactive means flat fitted curve, though single readings scatter; tested in HEK293 cells; also: % is scaled to controls: 0 for no effect and ±100 for the full control effect; nearly all actives have a fitted effect of over 50% in size; luciferase read-out
Cruzain inh Det: qHTS Assay for Promiscuous and Specific Inhibitors of Cruzain (with detergent) | Cruzipain (Trypanosoma cruzi), P25779 | purified cruzain, Z-FR-AMC fluorescence, 0.01% Triton | Potency, µM, inactives show max response, negative = inhibition, hits mostly inhibitors | 200,000 tested, 0.43% active | AID 1478, 2009; active = well fitted curve in the direction sought with a large enough effect; inconclusive = small, poorly fitted or top-dose-only effect, or another doubt; inactive = no such curve, though single readings can be large; an effect the other way counts as inactive or inconclusive;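 also: plate controls were neutral wells for no effect and buffer without enzyme for full effect; nearly all actives have a fitted effect of over 40% in size; top concentration of the series not given in the record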
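Cruzain (1.5 nM) preincubated 15 min at RT with compound in 100 mM sodium acetate pH 5.5, 5 mM DTT, 0.01% Triton X-100. Reaction started with 2 uM Z-FR-AMC; AMC fluorescence (ex 360/em 450 nm) change over 60 s gave rate.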
RE007 growth inh: qHTS Assay for Inhibitors of the HIV-1 protein Vpr; S. pombe RE007 Vpr strain, BacTiter-Glo ATP luminescence, 24 h; control for the full effect not named in the record; Potency, µM (top dose mostly 92.2 µM), without a hit: at the highest dose activity change, negative = less growth; 360,000 tested, 0.21% active; active = well fitted falling curve with a large enough effect; inconclusive = small, poorly fitted or top-dose-only effect; inactive = no such curve, though single readings can be large or run the other way;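 also: % is scaled to controls: 0 for no effect and ±100 for the full control effect; nearly all actives have a fitted effect of over 50% in size; the assay follows cell death caused by Vpr and the record does not say whether a fall means rescue or toxicity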
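Fission yeast strain RE007, carrying one chromosomally integrated HIV-1 vpr copy, was seeded at OD 0.01 in PMG+AL medium with 23 nL pinned compound. After 24 h at 30 °C and 99% humidity, viability was read by BacTiter-Glo luminescence.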
2A StopGo: High Throughput Screening for Foot and Mouth Disease Virus Antivirals; human cells with a luciferase reporter of 2A StopGo recoding; control for the full effect not named in the record; Potency, µM (doses to about 57.9 µM), for the others: at the top dose signal change, negative = less light; 410,000 tested, 1.2% active; AID 1159524, 2015; active = well fitted falling curve with a large enough effect; inconclusive = small, poorly fitted or top-dose-only effect; inactive = no such curve, though single readings can be large or run the other way; tested in HEK293T cells; also: % is scaled to controls: 0 for no effect and ±100 for the full control effect; nearly all actives have a fitted effect of over 45% in size; luciferase light after 4 h
SARS PLP yeast: qHTS of Yeast-based Assay for SARS-CoV PLP; S. cerevisiae expressing SARS-CoV PLpro, growth rescue; control for the full effect not named in the record; 330,000 tested, 0.19% active; Potency, µM (titrated, usually from 32.9 µM), without a hit: top-dose activity, positive = growth rescue; also: 0% is about no effect; nearly all actives have a fitted effect of over 55% in size; growth read by luminescence after 48 h
NS1 function inh: qHTS Assay for Inhibitors of Influenza NS1 Protein Function | S. cerevisiae slowed by influenza A NS1, growth recovery by OD600 | Potency, µM (titrated, usually from 46.1 µM), for the others: at the top dose activity, positive = more growth | 270,000 tested, 0.4% active; also: actives are rising curves; nearly all actives have a fitted effect of over 50% in size
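Recovery from NS1-induced slow growth read by OD600 in budding yeast switched to galactose assay medium (pH 6.0, -URA) at 1:100 dilution. Compound 23 nl per well; the matching strain lacking NS1 serves as control.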
* = called active by the depositor; ? = inconclusive; . = not tested or not shown; & = joins results of further samples; [ ] = remark or other dose. Unless noted, calls follow the shape of the dose curve; as a rule, active means well fitted rising curve with a large enough effect; inconclusive means small, poorly fitted or top-dose-only effect; inactive means no such curve, though single readings can be large or run the other way. Potency is read from the fitted curve at half-maximal effect.

The line under a structure holds: MARV entry inh	Cruzain inh noDet	LASV entry inh	Cruzain inh Det	RE007 growth inh	2A StopGo	SARS PLP yeast	NS1 function inh
CCCc1cc(=O)[nH]c(SCC(=O)Nc2cc(S(=O)(=O)N3CCCCC3)ccc2Cl)n1
  0%	.	-1%	.	-5%	4%	.	.
COc1ccc(-c2nc(N)ncc2-c2ccc(OC)c(OC)c2)c(O)c1
  ?	.	?	.	0%	-25%	-2%	-2%
Brc1nnc2n1-c1ccccc1Sc1ccccc1-2
  12%	-15%	-15%	-2.1%	1%	-16%	22%	-5%
O=C(CN1CCC(NC(=O)c2ccco2)CC1)Nc1cccc2ccccc12
  2%	-4%	8%	1.4%	-4%	-18%	6%	-5%
O=C(CSCc1ccco1)Nc1cc(C(F)(F)F)ccc1N1CCOCC1
  -2%&-26%	?	14%	-16%	8%	.	-3%	15%
COCCNC(=O)c1ccc(CS(=O)(=O)c2ccc(OC)cc2)o1
  .	-12%	.	-1.6%	3%	0%	7%	1%
Cc1ccccc1OCC(=O)N(Cc1nc(-c2ccccc2)no1)C(C)C
  ?	17%	-10%	-4.5%	15%	.	-3%	-21%
O=C1NCN(c2ccccc2)C12CCN(c1nnnn1-c1ccccc1)CC2
  -10%	19%	-9%	-0.9%	17%	?	-7%	-1%
O=C(NC1=NCCS1)c1ccc(N2CCCC2=O)cc1
  ?	.	0%[46.1 µM]	.	12%	0%	1%	.
COc1ccc(CCN2CCC(CNC(=O)c3cnn(-c4ccc(C)cc4)c3C3CCN(C(=O)OC(C)(C)C)CC3)CC2)cc1
  .	-21%	?	-4.1%	.	-4%	.	.
Cn1c(=O)c(Sc2ccccc2)c(O)c2ccccc21
  .	.	.	.	10%	-18%	0%	-52%
O=C(CCN1C(=O)/C(=C\c2ccccc2)SC1=S)NNC(=O)c1ccncc1
  .	.	.	.	9%	-19%	0%	0%
CC(=O)N1N=C(c2ccccc2)CC1c1ccccc1[N+](=O)[O-] (centres undefined)
  7%	6%	3%	-1.4%	-19%	-2%	18%	-1%
CN1C(=O)OC2(C)CCc3ccccc3C12C (centres undefined)
  -1%	-2%	0%	0.3%	5%	-8%	-1%	-3%
CCOC(=O)c1csc(Nc2nc3ccc(F)cc3s2)n1
  ?	?	?	-2.0%	?	?	-14%	-22%
Cc1cccc(C)c1NC(=S)Nc1ccc(F)cc1
  3%[46.1 µM]	.	-7%	.	14%	-10%	0%	-2%
CCOc1ccc(NC(=O)[C@H](Cc2ccccc2)NC(=O)C2CCNCC2)cc1
  ?	.	16%[46.1 µM]	.	-7%	-12%	3%	-9%
Cc1nc2cccnc2n1-c1cccc(C(=O)NCc2ccc(OC(C)C)cc2)c1
  .	18%	-15%[46.1 µM]	-3.2%	.	?	.	.
CCOC(=O)Cn1c(-c2cccnc2Cl)nc2cc(Cl)c(Cl)cc21
  11%	16%	-10%	-0.1%	-3%	?	-17%	5%
O=C(CC1N=C2c3ccccc3N=C(SCc3cccc(F)c3)N2C1=O)NCc1ccc2c(c1)OCO2 (centres undefined)
  .	3%	18%[46.1 µM]	-5.1%	.	58%[activator]	.	.
O=C(CN1C(=O)CSc2ccc(S(=O)(=O)N3CCCCC3)cc21)NCc1ccccc1
  -14%[46.1 µM]	.	-23%[46.1 µM]	.	2%	-8%	-1%	22%
COc1cc2c(cc1NC(=O)COc1ccc(Cl)cc1)oc1ccccc12
  22%[46.1 µM]	-1%	12%[46.1 µM]	-1.7%	.	-27%	.	.
O=C(Nc1ccccc1C(=O)O)c1cccc(NS(=O)(=O)c2ccc(Br)cc2)c1
  .	.	.	.	1%	2%	2%	7.9µM*
CN(c1ccccc1)S(=O)(=O)c1ccc(C(=O)NCCc2ccc(F)cc2)cc1
  -2%[46.1 µM]	.	?	.	-14%	?	7%	1%
Cc1ccc(S(=O)(=O)c2nc(-c3cccc(Cl)c3)oc2NCc2ccccc2)cc1
  ?	-4%	?	-6.3%	.	47%[activator]	.	.
O=C(Nc1nnc(-c2ccncc2)o1)c1ccccc1F
  ?	.	16%	.	2%	5%	1%	.
Cc1ccccc1C(=O)Nc1ccccc1C(=O)OCc1cc(=O)n2ccsc2n1
  .	18%	15%[46.1 µM]	-0.4%	.	-3%	.	.
O=C(CN1CCCCC1)N1CCCc2ccccc21
  39%	-3%	2%	3.7%	-3%	.	3%	1%
Nc1[nH]c(=O)nc(Nc2ccccc2)c1N=O
  -8%[46.1 µM]	.	-22%[46.1 µM]	.	-8%	37%[activator]	.	.
COC(=O)c1ccccc1NC(=O)c1c(O)c2c([nH]c1=O)CCCC2
  14%[46.1 µM]	2%	9%	-4.2%	-5%	8%	-7%	-4%
COc1ccc(N(CC(=O)N2CCN(c3cccc(Cl)c3)CC2)S(=O)(=O)c2c(C)noc2C)cc1
  -8%&-8%[46.1 µM]	-8%	?	-4.7%	1%	-24%&-26%	0%	25%
CN(C)N1C(N)=C(C#N)C(c2ccsc2)C2=C1CCCC2=O (centres undefined)
  0%	0%	-4%	-1.6%	-2%	-8%	-17%	22%
C[C@@H]1O[C@@H](O[C@H]2C[C@@H](O)[C@]3(CO)[C@H]4[C@H](O)C[C@]5(C)[C@@H]([C@@H]6COC(=O)C6)CC[C@]5(O)[C@@H]4CC[C@]3(O)C2)[C@H](O)[C@H](O)[C@H]1O
  0.32µM*	-4%	.	-4.4%	.	.	.	-6%
O=C(C1c2ccccc2C(=O)N2CCc3ccccc3C12)N1CCN(Cc2ccccc2)CC1 (centres undefined)
  17%	17%	-25%	-1.7%	18%	12%	5%	3%
Cc1ccc(/C=C2/NC(=O)N(Cc3ccccc3F)C2=O)o1
  -22%	-11%	-6%	2.3%	0%	-16%	-39%	-35%
Cc1nc(=O)c(-c2ccccc2)c(C)n1CCO
  ?	-7%	4%	1.9%	1%	7%	?	-4%
COc1ccc(NC(=O)CCC(=O)OCc2ccc(C(=O)Oc3ccc(Cl)cc3)cc2)cc1
  2%	?	-16%	1.7%	14%	31%[activator]	-2%	-1%
O=C(OCC(=O)c1cccs1)c1ccccc1
  4%	-4%	?	1.6%	3%	48%[activator]	8%	?
Cc1ccc(NC(=O)CSc2nc(C)cc(C)c2C(=O)Nc2cccc(C)c2)cc1
  4%[46.1 µM]	11%	-7%[46.1 µM]	-5.4%	.	0%	.	.
CCOC(=O)C1Cn2c(nc3c(c2=O)C(C)(CC)Cc2ccccc2-3)S1 (centres undefined)
  ?	?	?	-8.6%	-26%	-30%	-10%	-39%
Cc1cccc(C(=O)OCC(=O)N2CCc3ccccc3C2)c1O
  ?	.	7%	.	31%	40%[activator]	-9%	.
CCc1cc(C(=O)c2ccccc2OC)c(N)s1
  -5%	-5%	-1%	-4.6%	-7%	.	-4%	-6%
N=c1sccn1CC(=O)Nc1cccc(Oc2ccccc2)c1
  ?	3%	?	4.6%	-2%	-11%	0%	-10%
Cc1cc(-c2ccc(C)c(S(=O)(=O)NCCc3ccc(S(N)(=O)=O)cc3)c2)on1
  .	-10%	-6%[46.1 µM]	2.0%	2%	34%&4%[activator]	2%	-7%
COc1ccc(/C=C/c2nc(N)nc(-c3ccccc3O)n2)cc1OC
  ?	?	?	-8.3%	6%	-14%	-50%	13%
O=C(NCc1ccccc1)c1ccc(NC(=O)c2nsc3ccccc23)cc1
  .	-13%	-19%[46.1 µM]	-3.4%	.	-15%	.	.
Cc1ccc2nc(-c3sc4nc(C)cc(C)c4c3N)[nH]c2c1
  ?	?	13µM*	-3.2%	-3%	4%	-26%	15%
O=C(CSc1ncnc2ccccc12)Nc1cccc(S(=O)(=O)N2CCOCC2)c1
  -20%[46.1 µM]	.	15%	.	1%	?	1%	.
CN(C(=O)CSc1nnc(C(F)(F)F)n1N)C1CCS(=O)(=O)C1 (centres undefined)
  .	.	.	.	-9%	-1%	-1%	-1%
O=C(C1CCCO1)N1CCN(C(c2ccccc2)c2ccccc2)CC1 (centres undefined)
  -1%	9%	6%	1.5%	5%	.	-1%	-37%

Carrying on:
The line under a structure holds: MARV entry inh	Cruzain inh noDet	LASV entry inh	Cruzain inh Det	RE007 growth inh	2A StopGo	SARS PLP yeast	NS1 function inh
CCOC(=O)C1(CCOc2ccccc2)CCN(Cc2cccc(F)c2)CC1
  .	.	.	.	-7%	?	4%	-19%
N#Cc1c(Nc2cccc(F)c2)sc2c(O)cc(=O)[nH]c12
  0%[46.1 µM]	.	13%[46.1 µM]	.	-15%	-6%	9%	19%
COc1cccc(NC(=S)NCc2ccccc2)c1
  .	.	.	.	-13%	120%[activator]	3%	13%
Cc1ccc(-c2nnn(CC(=O)Nc3nnc(C(C)C)s3)n2)cc1
  -8%[14.2 µM]	.	-2%	.	13%	-2%	0%	0%
CCc1ccc(NC(=O)C(C)n2nc(C)c([N+](=O)[O-])c2C)cc1 (centres undefined)
  -1%[46.1 µM]	.	-18%	.	7%	0%	-1%	.
COc1ccc(-c2nnc3c4ccccc4c(C)nn23)cc1
  26%	?	5%	0.1%	-16%	26%	-8%	-62%
Cn1nc(-c2ccccc2)c(-c2nc(-c3cccc(C(F)(F)F)c3)no2)c1Cl
  1%	13%	12%	0.9%	-7%	0%	5%	1%
O=C(N/N=C/c1ccco1)c1ccncc1
  -17%	-2%	7%	-4.7%	1%	5%	3%	4%
Cc1cnc(C(=O)Nc2nnc(C3CC3)s2)cn1
  -7%	-4%	0%	-0.4%	1%[3.69 µM]	17%	19%	-4%
COc1ccc(OCC(O)CNC(=O)Nc2ccc(C(C)(C)C)cc2)cc1 (centres undefined)
  .	.	.	.	23%	-25%	-1%	4%
Cc1ccccc1OCC(=O)Nc1ccccc1C(=O)NC1CC1
  -11%	.	10%	.	-8%	-19%	-1%	.
COc1ccc(CCNC(=O)CSc2nnc(CNc3ccc(Cl)cc3)o2)cc1OC
  -9%&-9%	?	-5%	-4.5%	-12%	?	9%	-15%
